Source: PubChem
ugtP null kill: kills S. aureus RN4220 lacking UgtP; S. aureus RN4220 ugtP deletion, OD600 growth, 16 h; some inactives read as strong as hits; AID 1259309; hit rate 0.54% among 330,000; growth inhibition, % (concentration not given with the values);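 active means z-score under -3 and OD600 up to 0.15 on both plates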;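 further: plate controls were untreated wells for no effect and antibiotic for full effect; wells of about 80 µL received 100 nL stock; the first replicate is given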
Mtb hypoxia rep: inhibitors of hypoxia-regulated fluorescent reporter in Mycobacterium tuberculosis. fluorescence inhibition, % (concentration not given with the values). M. tuberculosis hypoxia-regulated fluorescent reporter, fluorescence. hit rate 0.1% among 300,000. AID 1159583;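 active means 35 to 45% if threefold the growth effect, above 45% if 1.5-fold the growth effect; inactive means the rest, general growth blockers included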;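 further: wells of about 50 µL received 100 nL stock; 0% = vehicle wells and 100% = reference inhibitor wells; whole bacteria with a GFP reporter of the hypoxia response; strong numbers were not always called active; many hits fall short of the cut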
Autofluor counter: counter-screen for toxin protease inhibitors: compound fluorescence | compound autofluorescence counterscreen, microsphere flow cytometry; stronger effect = higher value | fluorescence intensity (no concentration beside the values) | hit rate 3.1% among 360,000 | AID 624483;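 active means at least 3 SD above the mean of all compounds, about 16000 in these data; inconclusive means too few beads counted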;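 further: 100 nL of 1 mM stock went into each well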
PrP UTR inh: suppresses PrP 5' UTR mRNA reporter expression | cell-based PrP 5' UTR mRNA reporter, plate reader | inhibition, % (test concentration not listed) | hit rate 0.35% among 340,000;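 active means every replicate at 50% or more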;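 further: 0 = median of the neutral control wells; tested in H4 reporter cells; numbers are from one replicate; inactives centre near -14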
BJeLR viability: kills HRASV12-expressing BJeLR cells | hit rate 0.17% among 300,000 | inhibition, % (concentration not given with the values) | BJeLR (HRASV12) viability, CellTiter-Glo ATP luminescence, 48 h; reference of the scale not given here;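 active means replicate mean above 50%; inconclusive means above 50% but judged a plate artefact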;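 further: 50 nL library stock added to about 25 µL; numbers are from one replicate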
RN4220 kill: S. aureus RN4220 growth inhibition. OD600, 16 h. inhibition, % (no concentration beside the values). hit rate 0.33% among 330,000;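 active means z-score of -3 or lower and OD600 up to 0.18 on both plates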;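 further: plate controls were untreated cells for no effect and reference antibiotic for full effect; stock transfer was 100 nL into about 80 µL; one replicate is shown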
Mtb hypoxia rep growth: recorded beside Mtb hypoxia rep, whose call it bears; growth inhibition, %; measured here: M. tuberculosis growth (absorbance);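 0% = vehicle and 100% = reference antibiotic; read after six days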
* = called active by the depositor; ? = inconclusive; . = no result given. Not a hit list; about 4.1% have a hit in one of these screens.

SMILES	ugtP null kill	Mtb hypoxia rep	Mtb hypoxia rep growth	Autofluor counter	PrP UTR inh	BJeLR viability	RN4220 kill
CCC(C)c1ccccc1N1CC(C(=O)NCCCn2nc(C)cc2C)CC1=O (stereo unspecified)	-0.4	5.9	-1.7	?	-17.6	.	-0.9
CC(c1ccccc1)N1C(=O)CC(Sc2ncccc2C(=O)O)C1=O (stereo unspecified)	4.3	0.9	4.6	8084	-1.0	1.5	2.8
O=C(NC1CCN(C(=O)Nc2ccccc2Cl)CC1)c1ccco1	2.7	2.0	4.1	4825	5.4	-10.5	-2.0
O=C(Cc1ccc(-n2cccc2)cc1)NC1CCCCCC1	1.5	9.3	10.8	8535	-27.7	-6.8	-8.7
Cn1c(=O)oc2cc(S(=O)(=O)N3CCCC(C(=O)NCCN4CCOCC4)C3)ccc21 (stereo unspecified)	12.1	7.2	2.7	5780	0.7	.	3.8
CC(=O)c1ccc(COC(=O)Cc2ccc([N+](=O)[O-])cc2)cc1	9.6	8.7	12.9	3293	-43.2	0.5	7.9
O=C(CSCc1ccccc1)Nc1ccccc1	14.9	4.1	9.9	3441	.	0.6	-1.8
O=C(O)/C(CC(=O)c1ccc(Cl)cc1)=N/Nc1ccc([N+](=O)[O-])cc1[N+](=O)[O-]	.	.	.	2948	-7.6	1.7	.
c1cncc(-c2nc(NCc3cccs3)c3ccccc3n2)c1	0.0	0.5	-4.0	4072	-23.1	2.6	-21.7
Cc1ccc2nc(C)cc(Nc3ccc([N+](=O)[O-])cc3)c2c1	3.3	16.0	-0.8	5093	8.6	0.8	4.2
COc1ccccc1NC(=O)Nc1cc(F)ccc1F	-1.9	2.5	4.1	2128	-44.6	-0.4	-4.0
O=C(COC(=O)c1ccc(NS(=O)(=O)c2cccs2)cc1)NCC1CCCO1 (stereo unspecified)	13.4	5.1	14.7	4490	-9.5	13.2	2.8
S=c1[nH]nc(-c2cccc(Cl)c2)n1N=Cc1ccco1	2.0	-8.3	-2.2	.	.	.	4.3
CC(=O)COc1ncnc2c(Cl)cc(Cl)cc12	3.9	10.5	-0.5	2195	-17.1	19.2	4.2
O/N=C1/CCSc2ccccc21	.	.	.	3360	-17.3	-4.8	.
CC(=O)N1CCN=C1SCc1cccc(C(F)(F)F)c1	25.9	13.5	6.7	4106	-19.7	0.1	-1.3
CC(=O)Nc1ccc(NC(=O)CSc2ccc3nnc(-c4cccnc4)n3n2)cc1	13.5	8.7	-0.5	5202	-11.3	-4.3	3.7
CCc1nc(C)cc2c1sc1ccccc12	4.5	5.7	1.5	.	.	-6.9	6.3
O=C(c1c(F)cccc1F)N1CCN=C1SCc1ccccc1	10.5	-4.3	9.9	6347	-25.8	-2.8	1.1
CCC1CCCCN1C(=O)c1c[nH]c2ccc(S(=O)(=O)N(C)c3ccc(Cl)cc3)cc2c1=O (stereo unspecified)	3.5	5.0	1.4	10287	-9.5	5.0	6.7
CCOc1ccccc1NC(=O)C(OC(=O)c1ccc(N(C)C)cc1)c1ccccc1 (stereo unspecified)	-7.3	5.3	10.2	2688	-9.9	-10.6	-0.6
Cc1cc(C)c2nc(Cl)c(Cl)nc2c1	11.9	6.6	2.0	4227	-33.0	-11.7	2.3
Clc1ccc2c(c1)Nc1ccccc1CC2	88.5*	9.8	11.4	3124	-24.1	11.7	6.0
CC(NC(=O)C1CCC(CNS(=O)(=O)c2ccccc2)CC1)c1ccccc1 (stereo unspecified)	8.4	18.3	9.9	4293	-18.4	-5.2	-1.2
Cc1nc2cc(NS(=O)(=O)c3ccc(Br)cc3)ccc2n1C	1.9	10.9	5.0	4646	22.4	-0.4	7.1
CCOC(=O)c1ccc2ncc(-c3ccccc3)nc2c1	23.8	5.7	8.1	?	-103.0	7.7	15.3
C=CCc1ccccc1OCC(=O)NNC(=S)NCc1ccccc1	-2.8	5.9	11.2	5351	-11.8	-23.4	17.7
CN(C(=O)c1ccccc1C(=O)OCC(=O)Nc1ccc(S(N)(=O)=O)cc1)c1ccccc1	5.7	4.2	11.8	5582	-48.0	-7.2	-1.0
CCC(c1nnc(SCC(=O)NC23CC4CC(CC(C4)C2)C3)o1)N(C)C (stereo unspecified)	-3.2	7.8	1.0	2960	1.1	.	-10.4
CCCCC1=CC2=C(c3ccco3)C(=O)C(C)(OC(=O)c3ccc(OC)cc3)C(=O)C2=CN1Cc1ccc(OC)cc1 (stereo unspecified)	-6.9	2.9	6.7	.	.	-4.6	7.0
NC(N)=Nc1nc2ccc([N+](=O)[O-])cc2[nH]1	-1.0	-1.3	-2.8	2933	-11.0	15.8	-0.4
Cc1ccc(/C=C(\C#N)C(=O)Nc2c(C)cccc2C)s1	-1.6	8.9	-5.8	13765	-21.2	-1.4	3.4
CN(C(=O)CN1C(=O)S/C(=C\c2ccccc2Cl)C1=O)C1CCS(=O)(=O)C1 (stereo unspecified)	-3.4	2.3	-4.1	3800	-10.0	-2.7	1.4
O=C(CSc1nnc(-c2ccco2)o1)NC1CCCCCC1	-4.9	.	.	2821	-8.1	13.6	-13.9
C#CCOCCOCCOCCNc1nc(N2CCN(C(=O)[C@H]([C@@H](C)CC)n3cc([C@@H](N)CC(C)C)nn3)CC2)nc(N2CCN(C(=O)[C@H]([C@@H](C)CC)n3cc([C@@H](N)CC(C)C)nn3)CC2)n1	.	.	.	5422	-32.9	5.0	.
Cc1ccc(C(=O)CC2(O)C(=O)N(CCc3ccccc3)c3ccc(Br)cc32)o1 (stereo unspecified)	-11.4	.	.	4658	-3.3	-8.3	-1.3
COc1cc(C(=O)Nc2nnc(CC(=O)NCc3ccccc3)s2)cc(OC)c1OC	9.2	4.6	-3.4	4013	-8.0	1.8	3.0
Nc1cc(N)nc(SCC(=O)Nc2cc(S(=O)(=O)N3CCOCC3)ccc2Cl)n1	4.5	-0.5	-0.6	4285	-12.1	-3.2	1.2
CCN1CCN(CCCOc2ccc(-c3ccccc3)cc2)CC1	31.1	13.8	15.5	.	.	13.4	-4.0
O=S(=O)(c1cnccc1N1CCN(/N=C/c2ccc(Cl)cc2)CC1)N1CCCCC1	.	.	.	4870	-16.0	1.3	.
O=C1C=C(N2CCOCC2)CO1	5.2	21.1	2.6	3739	-23.2	1.4	6.9
CCCOc1ccc(-c2c(C(=O)N/N=C(\C)COc3ccccc3)nnn2-c2nonc2N)cc1	.	.	.	5454	-15.2	4.4	.
CC1(C(=O)O)CCC(C(=O)NC2CCCCC2)C1(C)C (stereo unspecified)	2.6	5.4	11.2	5706	-10.2	0.0	2.9
Cc1ccc(C)c2sc(NC(=O)C3CC3)nc12	8.9	9.4	6.1	5468	-22.3	-22.1	3.5
O=C(COC(=O)CNC(=O)c1sc2ccccc2c1Cl)NC1CCS(=O)(=O)C1 (stereo unspecified)	-0.4	-11.3	0.0	4743	-34.0	-0.2	2.9
Cc1nn2c(Nc3ccccc3)c3c(nc2c1-c1ccccc1)CCC3	21.0	1.3	-2.6	2094	-16.1	-20.3	-6.4
COC(=O)CCN1CCN(S(=O)(=O)c2ccccc2Br)CC1	1.6	12.9	2.0	4692	-11.7	-9.6	8.2
CCC1CCC/C1=N\NC(=O)c1ccc(Cl)cc1 (stereo unspecified)	.	.	.	6102	-15.2	-4.6	.
N=c1ccn(Cc2ccc(F)cc2)cc1	10.2	4.6	14.0	5340	.	1.1	3.4
O=C(O)COc1ccccc1/C=C1\C(=O)Nc2ccc(Br)cc21	4.3	18.7	12.8	3525	-27.8	-12.4	3.0
CC1CCN(C(=O)CCCN2C(=O)c3cccnc3Oc3ccc(Cl)cc32)CC1	-5.4	-19.8	3.4	4724	0.4	-9.0	2.1
Cc1ccc(S(=O)(=O)N/N=C/c2ccc(OCC(=O)Nc3ccccc3Cl)cc2)cc1	.	.	.	10073	-11.8	3.7	.
CN(C)C(=S)Nc1ccc(Br)c(Cl)c1	-5.4	2.2	7.5	5351	1.4	-2.0	1.0
O=C(O)CCC(=O)Nc1ccccc1C(=O)NCCc1ccccc1	3.8	1.3	12.2	1977	-56.8	2.6	2.5
Cn1cccc1CNC1CCCC1	.	.	.	8135	-21.5	3.9	.
c1cncc(-c2nc(NCCCN3CCOCC3)c3c4c(sc3n2)CCC4)c1	10.1	23.2	22.5	4913	-9.3	2.6	3.1
N=C1/C(=C/c2ccco2)C(=O)N=C2SC(CC(=O)N3CCCC3)=NN12	-0.5	2.8	0.6	4603	-9.1	-10.9	2.0
COc1cccc2c1cc1c(=O)n(CC(=O)NCCCN3CCN(C)CC3)nc(C)n12	4.6	0.7	-5.1	4532	-0.2	3.0	0.9
Cc1cc(C)cc(NC(=O)C(OC(=O)c2sccc2C)c2ccccc2)c1 (stereo unspecified)	15.8	10.2	4.2	2200	-23.9	-19.5	-4.7
Cc1ccc2cc3c(N)c(C(=O)N4CCOCC4)sc3nc2c1	-4.4	5.2	14.4	3672	-50.2	-6.2	5.8

Next results.
SMILES	ugtP null kill	Mtb hypoxia rep	Mtb hypoxia rep growth	Autofluor counter	PrP UTR inh	BJeLR viability	RN4220 kill
CCn1c(O)c(C=NC2CCCC(C)C2C)sc1=S (stereo unspecified)	-15.0	.	.	6716	-69.0	7.9	4.5
Cc1nn(C)c(C)c1CN(C(=O)C1CCC(=O)N(C2CCCCCC2)C1)C(C)C (stereo unspecified)	7.2	8.1	4.3	4953	-22.7	-0.6	4.4
CC(=O)NCCn1c(SCc2cccc([N+](=O)[O-])c2)nc2ccccc2c1=O	-1.2	4.4	-2.4	5116	-22.3	.	4.5
O=C(Cc1ccccc1)NC(Cc1ccccc1)C(=O)O (stereo unspecified)	-6.3	7.6	7.6	.	.	.	5.6
O=C(NCCNCc1ccc(F)cc1)c1ccco1	1.8	10.6	9.4	8584	-12.0	-10.8	2.2
O=C(NN=Cc1ccc(-c2cccc(C(F)(F)F)c2)o1)c1cccc(F)c1	-2.5	4.2	2.8	.	.	.	-7.5
CC(C)n1c(C(F)(F)F)nc2cc(C(=O)N3CCC(O)CC3)ccc21	-2.4	-2.5	-9.8	5064	-25.0	-5.6	1.2
CCCn1c(C(O)c2ccc(OC)c(OC)c2)nc2ccccc21 (stereo unspecified)	8.0	15.4	7.5	3723	-28.4	3.8	-0.7
